Screening data: PubChem BioAssay, several laboratories
CBX7 AlphaScr – CBX7 inhibition, primary AlphaScreen. AlphaScreen His6-CBX7 / biotin-H3K27me3 peptide binding; hits give low values. normalised signal (fraction of DMSO) (concentration not given with the values). hit rate 1.1% among 66,000; in the data active means normalised signal below about 0.5;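 further: 100 nL library stock added to about 20 µL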
Target sequence (O95931 whole entry, looked up): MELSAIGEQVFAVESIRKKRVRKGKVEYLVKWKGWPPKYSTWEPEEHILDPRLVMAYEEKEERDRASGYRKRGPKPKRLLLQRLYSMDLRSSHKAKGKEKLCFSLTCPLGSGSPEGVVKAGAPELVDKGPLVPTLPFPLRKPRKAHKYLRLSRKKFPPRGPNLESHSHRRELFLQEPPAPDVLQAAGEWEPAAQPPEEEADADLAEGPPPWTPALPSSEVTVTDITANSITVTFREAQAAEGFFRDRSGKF
CBX7 AlphaScr z-score – also measured in CBX7 AlphaScr; calls as there; z-score; measured here: z-score of CBX7 signal; some inactives read as strong as hits; reference of the scale not given here;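 same signal on another scale; lower means less binding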
An asterisk follows results filed as active. Only part of the results is shown. The share of hits here may be higher or lower than overall.

Second line of a record – CBX7 AlphaScr | CBX7 AlphaScr z-score
Cc1cccc(NC(=O)C(NS(=O)(=O)c2ccc3nc(C)sc3c2)C(C)C)c1 (stereo not drawn)
  0.99 | -0.17
Cc1noc(C)c1S(=O)(=O)N1CCC(C(=O)NCCC2=CCCCC2)CC1
  1 | 1.1
O=C(Cc1ccc(NC2=NC3CS(=O)(=O)CC3S2)cc1)N1CCN(c2ccccc2)CC1 (stereo not drawn)
  0.98 | -0.42
Cc1cccc(C)c1NC(=O)CCc1nnc2ccc(N3CCOCC3)nn12
  0.95 | -0.87
COc1ccc(-c2cc3nc(C)c(Cc4ccccc4)c(=O)n3[nH]2)cc1
  0.96 | -0.74
CCn1c(SCC(=O)Nc2ccc(OC)cc2)nnc1-c1ccc2[nH]c(C)c(C)c2c1
  0.83 | -4.9
O=C(NCc1ccccc1)c1ccc2c(c1)N(Cc1cccc(F)c1)C(=O)c1ccccc1S2
  1 | 1
CC(C)Oc1ccc(C(=O)N(Cc2ccccc2)C2CCS(=O)(=O)C2)cc1 (stereo not drawn)
  0.93 | -0.069
O=C(CCCN1C(=O)c2cccnc2C1=O)Nc1ccc(Br)cc1
  0.92 | -2
O=C(CC(c1ccccc1)c1ccccc1)NCC1(c2ccccc2)CCOCC1
  0.89 | -2.3
COc1ccc(S(=O)(=O)CCc2nnc(NC(=O)c3ccc(C(C)(C)C)cc3)s2)cc1
  1 | 0.83
Cc1ccc(CN2CCN(CC(=O)NCc3cccnc3)C2=O)cc1
  1 | 1.9
Cc1onc(-c2ccccc2)c1C(=O)NCCCN(C)C
  1.1 | 0.085
Cc1ccc2nc(SCc3cn4c(C)cccc4n3)[nH]c2c1
  0.93 | -1.4
O=C(O)c1cccc(Nc2cc3ccccc3c(=O)[nH]2)c1
  1.1 | 0.99
Cn1c2ccccc2c2c(C(=O)NCc3ccccn3)cn(C3CCCC3)c(=O)c21
  0.89 | -0.11
CN1C(=O)C(O)(CC(=O)c2cccs2)c2ccccc21 (stereo not drawn)
  1 | 0.36
CCC(C)NC(=O)Cn1ncc2ccsc2c1=O (stereo not drawn)
  1 | 0.24
O=C(CSc1nnc(CNC(=O)c2ccccc2F)o1)NCc1ccc2c(c1)OCO2
  0.95 | -0.86
Cc1csc2ncc(C(=O)Nc3cccc(C(F)(F)F)c3)c(=O)n12
  1 | 0.94
COc1ccc(/C=C\c2onc(C)c2S(=O)(=O)N2CCC(C(=O)NCC3CCCO3)CC2)cc1 (stereo not drawn)
  0.96 | -0.089
Cc1nc(SCC(=O)Nc2ncccn2)n[nH]1
  1.1 | 1
Cc1cc(C)c2nc(N3CCC(C(=O)N4CCCCC4)CC3)sc2c1
  0.97 | -0.53
COc1ccc(C2=NN(CC(=O)NC3CCCCC3)C(=O)CC2)cc1
  0.97 | -0.57
O=C1Nc2ccccc2Oc2cc([N+](=O)[O-])cc(Oc3cccc(Cl)c3)c21
  0.37* | -11*
Cc1ccc(S(=O)(=O)N2CC=C(C(=O)Nc3ccc(Br)c(C)c3)CC2)cc1
  0.97 | -0.32
COC(=O)c1ccc(Nc2nnc(C)c(=O)[nH]2)cc1
  1.3 | 0.68
CN(C)c1ccc(NC(=O)CC2Sc3ccc(C(F)(F)F)cc3NC2=O)cc1 (stereo not drawn)
  0.93 | -0.85
COCCn1c(=O)[nH]c2cc(C(=O)N3CCN(c4cc(Cl)ccc4C)CC3)ccc2c1=O
  0.95 | -1.3
COc1ccc(-c2nc(-c3ccccc3)c(-c3ccc(F)cc3)[nH]2)cc1
  0.85 | -3.7
CC(C)(O)C#Cc1ccc(C(=O)NCC(N)=O)cc1
  1.1 | 1.2
Cn1cnc2cc(NCc3cccc(Br)c3)ccc21
  0.85 | -3.5
O=C(NCc1ccc2c(c1)OCO2)c1cc(=O)n(Cc2ccc(Cl)cc2)c2ccccc12
  0.91 | -0.94
C=CCOc1ccc(C(=O)N(Cc2ccc(Cl)cc2)C2CCS(=O)(=O)C2)cc1 (stereo not drawn)
  1 | 0.031
CCCCCCc1cc2cc(-c3csc(Nc4ccccc4F)n3)c(=O)oc2cc1O
  0.97 | -0.55
COCCNC(=O)c1cc(=O)[nH]c2ccc(S(=O)(=O)N3CCCC3)cc12
  1 | 0.079
CCOc1ccc(C2C(C(=O)Nc3cc(C)ccn3)=C(C)NC3=C2C(=O)CC(C)(C)C3)cc1 (stereo not drawn)
  1.1 | 3.4
COc1ccc(Nc2c(-c3ccsc3)nc3ncccn23)cc1
  1 | 0.1
CCOc1ccc(OCC)c(N2C(=O)Cn3cccc3C2C(=O)NC2CCCCC2C)c1 (stereo not drawn)
  0.93 | -1.3
CCCNC(=O)c1ccc2nc(N3CCOCC3)sc2c1
  1.1 | 3.3
Cc1c(C(=O)Nc2cccc(Cl)c2)oc2ccc(S(=O)(=O)N3CC(C)CC(C)C3)cc12 (stereo not drawn)
  1 | 1.2
Cc1nc(Nc2ccc(F)cc2F)c2c(C)c(C)sc2n1
  0.73 | -0.36
Cc1ccc(CNC(=O)CCc2nc(-c3ccc(C)cc3)no2)cc1
  0.96 | -0.92
Cc1ccc(NC(=O)CCc2nnc3ccc(NCc4ccc(F)cc4)nn23)cc1C
  0.98 | -0.36
Cc1c(C(=O)NCc2cccnc2)sc2nc(-c3ccc(F)cc3)cn12
  1 | 1.1
CCOC(=O)c1cnc2ccc(OC)cc2c1Nc1ccccc1CC
  1.2 | 3.2
Cc1nc2cc(C(=O)NCCc3ccccc3)ccc2n1-c1ccc(F)cc1F
  1 | 0.48
CCc1cccc(NC(=O)C2CCN(c3nc4ccccc4[nH]3)CC2)c1
  0.97 | -0.37
COc1ccc(-c2nn(C)c3sc(C(=O)NCCCN4CC(C)CC(C)C4)cc23)cc1OC (stereo not drawn)
  1 | 0.21
CCOC(=O)c1cnc2ccc(C)cc2c1NCCCN1CCOCC1
  1.2 | 1.5
Cc1ccc(N2C(=O)c3ccccc3C2Nc2cc(C)ccc2C)nc1 (stereo not drawn)
  0.98 | -0.33
CC(C(=O)Nc1cc(C(F)(F)F)ccc1Cl)n1ncc2ccccc21 (stereo not drawn)
  0.95 | -1.1
Cc1ccc(CNC(=O)c2cnn3c(C)c(Cc4cccc(Cl)c4)c(C)nc23)cc1
  0.94 | -2.4
Cc1ccc(C(=O)N2CC(=O)Nc3ccc(F)cc3C2c2ccc(F)cc2)cc1C (stereo not drawn)
  0.94 | -0.27
O=C(Nc1cccc(C(F)(F)F)c1)c1cn(-c2ccc(Cl)cc2)c(=O)c2ccccc12
  1 | 1.6
Cc1cc(NC(=O)Nc2ccccc2Cl)no1
  0.99 | -0.19
Cc1ccccc1-n1c(=O)cc(NCc2ccc3c(c2)OCO3)[nH]c1=O
  1.1 | 1.3
CCN(CC)CCNC(=O)c1cc(Nc2ccc(OC)cc2)nc2ccccc12
  1.1 | 0.84
COc1cc(OC)cc(C(=O)Nc2c3c(nn2-c2ccc(C)cc2)CSC3)c1
  1 | 0.35
COc1ccccc1-c1c(C)nn2c(NCCCN3CCCC3)cc(C)nc12
  0.98 | -0.42

Looked up above:
CBX7 AlphaScr, Cc1c(C(=O)NCc2cccnc2)sc2nc(-c3ccc(F)cc3)cn12 : 1
CBX7 AlphaScr, CCCNC(=O)c1ccc2nc(N3CCOCC3)sc2c1 : 1.1

Returning to the listing, starting 6 compounds before the break.
Second line of a record – CBX7 AlphaScr | CBX7 AlphaScr z-score
O=C(Nc1cccc(C(F)(F)F)c1)c1cn(-c2ccc(Cl)cc2)c(=O)c2ccccc12
  1 | 1.6
Cc1cc(NC(=O)Nc2ccccc2Cl)no1
  0.99 | -0.19
Cc1ccccc1-n1c(=O)cc(NCc2ccc3c(c2)OCO3)[nH]c1=O
  1.1 | 1.3
CCN(CC)CCNC(=O)c1cc(Nc2ccc(OC)cc2)nc2ccccc12
  1.1 | 0.84
COc1cc(OC)cc(C(=O)Nc2c3c(nn2-c2ccc(C)cc2)CSC3)c1
  1 | 0.35
COc1ccccc1-c1c(C)nn2c(NCCCN3CCCC3)cc(C)nc12
  0.98 | -0.42
COc1ccc(C(=O)Nc2ccc(-c3nc4ncccc4o3)cc2)cc1OC
  1.1 | 0.49
COc1ccc(NC(=O)C2(S(=O)(=O)c3ccc(C)cc3)CC2)c(OC)c1
  1 | 0.54
O=C(c1ccccc1)c1ccc2nc(Cc3cccc(Br)c3)c(=O)[nH]c2c1
  0.98 | -0.57
O=C(Nc1nccs1)c1ccc2c(c1)C(=O)N(c1cccc(C(=O)c3ccccc3)c1)C2=O
  1.2 | 1.9
COc1ccccc1N1CCN(C2CC(=O)N(c3cccc(Br)c3)C2=O)CC1 (stereo not drawn)
  0.97 | -0.46
O=C(C1CC1)N1CCc2cc(S(=O)(=O)NCCCN3CCCCC3)ccc21
  1 | 0.55
Cc1cc(C)cc(C(=O)N(Cc2nc(-c3ccccc3)no2)C(C)C)c1
  1.2 | 3.4
CCc1nnc(NC(=O)Cn2nc(Cc3cccnc3)c3ccccc3c2=O)s1
  1 | 0.0085
O=C(Cc1ccc(F)cc1)Nc1c2c(nn1-c1ccc(Cl)cc1)CS(=O)(=O)C2
  1 | 0.36
CCN(CC)CC#CC(O)(c1ccccc1)c1ccccc1
  0.86 | -1.5
O=C(C1CCCN(c2nc3ccccc3[nH]2)C1)N1CCN(c2ccccc2)CC1 (stereo not drawn)
  0.85 | -1.7
O=C(Cn1ncc2ccsc2c1=O)NCCN1CCN(c2cccc(Cl)c2)CC1
  0.94 | -1.9
CCc1ccccc1NC(=O)c1cnn(-c2ccc(F)cc2)c1C1CCNCC1
  1.1 | 1.6
O=C(CSc1nnc(Cc2cc(=O)[nH]c(=O)[nH]2)n1-c1ccc(F)cc1)NCc1ccccc1
  1 | 0.11
Cc1nc2ccc(S(=O)(=O)NC(C(=O)N3CCCC(C)C3)C(C)C)cc2s1 (stereo not drawn)
  1.1 | 2.2
CCOc1ccc(-n2c(-c3ccccc3F)nc3c(cnn3-c3ccccc3)c2=O)cc1
  0.54 | -18
COc1ccc(C(=O)Nc2nccs2)cc1S(=O)(=O)N1CCOCC1
  1 | 0.77
COc1cccc(-n2cc(C(=O)NCCC(=O)NC3CCCCCC3)c3ccccc3c2=O)c1
  1.1 | 1
COc1ccccc1OCCCn1c(C2CC(=O)N(c3cc(C)cc(C)c3)C2)nc2ccccc21 (stereo not drawn)
  1 | 0.17
CC1CC(C)CN(C(=O)CN(C)S(=O)(=O)c2cnc[nH]2)C1 (stereo not drawn)
  1.2 | 1.9
O=C(CN1C(=O)c2ccccc2S1(=O)=O)Nc1ccc(S(=O)(=O)Nc2nccs2)cc1
  0.95 | -1.4
O=C(CCn1nc(-c2ccccc2)c2ccccc2c1=O)Nc1ccccc1
  1 | 0.29
CCC(C)NC(=O)c1ccc2c(c1)N(Cc1cccc(C)c1)C(=O)c1ccccc1S2(=O)=O (stereo not drawn)
  1 | 0.49
Cc1ccc(Cn2c(CCNC(=O)c3ccccc3)nc3ccccc32)cc1
  0.99 | -0.54
COc1ccccc1C1(CC#N)CCOC(C)(C)C1 (stereo not drawn)
  1 | 0.32
CCc1cccc(NC(=O)Cn2c(SCc3ccc(F)cc3)nc3ccncc32)c1
  0.99 | -0.7
OCCNCc1cccc(OCc2ccc(F)cc2)c1
  1 | 1.4
O=c1[nH]c(-c2ccc(OCCOCCOc3ccccc3)cc2)nc2sc3c(c12)CCCC3
  1.1 | 1.6
Cc1ccc(CN2C(=O)CCC2C(=O)NCCCN2CCOCC2)cc1 (stereo not drawn)
  1 | 2
COc1cccc(NC(=O)CN(c2ccccc2OC)S(=O)(=O)c2ccc(C)cc2)c1
  0.92 | -1.8
COc1ccccc1Nc1cc(C(=O)NCc2ccccc2Cl)c2ccccc2n1
  1.3 | 5
O=C(NC1CCCCC1)C1c2cccn2CC(=O)N1Cc1ccccc1Cl (stereo not drawn)
  0.91 | -2.2
O=c1cc(Nc2ccc3c(c2)OCCO3)[nH]c(=O)n1-c1ccc(Cl)cc1
  0.98 | -0.38
CC(C)N(Cc1nc(-c2ccccc2)no1)S(=O)(=O)c1ccccc1
  1 | 0.51
Nc1ccc(-c2ccc(-c3cnc4ccccc4n3)cc2)cc1
  0.15* | -9.6*
COC(=O)c1ccc2c(c1)N(Cc1cc(C)ccc1C)C(=O)c1ccccc1S2(=O)=O
  0.89 | -1.8
COc1ccc(C(C(=O)NC2CCCC2)N(Cc2ccccc2)Cc2ccccc2)cc1 (stereo not drawn)
  0.73 | -2.7
CCOc1ccc(-n2nc(C(=O)NCCN(CC)CC)c3ccccc3c2=O)cc1
  0.88 | -1.4
COc1ccc(NC2=NC3CS(=O)(=O)CC3S2)cc1Cl (stereo not drawn)
  0.99 | -0.33
CCCc1cc2c(=O)c(-c3ccc4c(c3)OCCO4)c(CC)oc2cc1OC(C)C
  0.65 | -5.9
CCc1ccc(Nc2nc3ccccc3nc2NS(=O)(=O)c2ccc(Br)cc2)cc1
  0.66 | -9.8
COCCN(CCOC)S(=O)(=O)c1ccc(C(=O)Nc2nc3ccc(Br)cc3s2)cc1
  0.97 | -0.68
COc1ccc(C(=O)Nc2ccc3nc(N4CCC(C)CC4)cc(C)c3c2)cc1OC
  0.79 | -3.6
O=C(Nc1cccc(C(F)(F)F)c1)C1CCN(S(=O)(=O)c2ccccc2)CC1
  0.93 | -1.2
Cc1ccc2nc(-c3ccc(N(C)C)cc3)c(Nc3ccc4c(c3)OCCO4)n2c1
  0.8 | -3.3
COc1ccccc1CNC(=O)c1cc2c(s1)CS(=O)(=O)C2
  1 | 0.59
CCCCN(C)CCNC(=O)C1CCN(c2nc3ccc(CC)cc3s2)CC1
  2 | 11
CCCCCn1c(=O)[nH]c2cc(C(=O)NCCc3ccc(S(N)(=O)=O)cc3)ccc2c1=O
  0.96 | -0.71

3 successive records out of the list so far, quoted:
Second line of a record – CBX7 AlphaScr | CBX7 AlphaScr z-score
COc1ccccc1Nc1cc(C(=O)NCc2ccccc2Cl)c2ccccc2n1
  1.3 | 5
O=C(NC1CCCCC1)C1c2cccn2CC(=O)N1Cc1ccccc1Cl (stereo not drawn)
  0.91 | -2.2
O=c1cc(Nc2ccc3c(c2)OCCO3)[nH]c(=O)n1-c1ccc(Cl)cc1
  0.98 | -0.38
